RVFV N-RNA FP = inhibitors of Rift Valley Fever Virus nucleocapsid-RNA interaction; P21700; RVFV N-RNA binding, fluorescence polarization; stronger effect = lower value; % bound, % (no concentration beside the values); 0.1% of 20,000 active;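 active means between 0 and 58% in either replicate with normal brightness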;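 further: 100 nL library stock added to about 12 µL; 100% = protein and probe without compound and 0% = probe alone; numbers are from one replicate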
Target sequence (P21700 whole entry, looked up): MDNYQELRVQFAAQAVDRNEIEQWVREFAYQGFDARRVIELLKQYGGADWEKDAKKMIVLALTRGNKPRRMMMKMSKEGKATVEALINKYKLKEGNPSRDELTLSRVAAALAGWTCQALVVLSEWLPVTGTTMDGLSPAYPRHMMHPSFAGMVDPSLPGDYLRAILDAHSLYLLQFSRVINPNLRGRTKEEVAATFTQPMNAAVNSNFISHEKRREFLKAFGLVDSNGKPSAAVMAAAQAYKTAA
* hit, by the source's call; & = joins results of further samples. These rows are one share of the data; count on the stated rates, not on these rows.

Start of the data: the first 8 entries as a preview:
compound | RVFV N-RNA FP
O=C(COc1ccc(Cl)cc1)NCCN1CCCCC1 | 101
C[C@H](N)[C@H](O)c1ccccc1 | 95
CC(C)(C)CC(C)(C)NC(=O)C1CCCO1 (centres undefined) | 95
CCN(CC)C(=O)c1cc2ccccc2oc1=O | 100
CC1CC(CC(C)C(=O)Nc2cc(Cl)ccc2Cl)C(=O)O1 (centres undefined) | 94
CCOC(=O)c1ccc(N=Cc2c(O)n(CC)c(=O)[nH]c2=O)cc1 | 90
CCOc1ccc(C=NC2=C(C#N)CCC2)cc1OC | 106
Cc1ccc(NC(=S)NC(=O)CC(C)C)cc1 | 99

Main list, from the first entry:
compound | RVFV N-RNA FP
O=C(COc1ccc(Cl)cc1)NCCN1CCCCC1 | 101
C[C@H](N)[C@H](O)c1ccccc1 | 95
CC(C)(C)CC(C)(C)NC(=O)C1CCCO1 (centres undefined) | 95
CCN(CC)C(=O)c1cc2ccccc2oc1=O | 100
CC1CC(CC(C)C(=O)Nc2cc(Cl)ccc2Cl)C(=O)O1 (centres undefined) | 94
CCOC(=O)c1ccc(N=Cc2c(O)n(CC)c(=O)[nH]c2=O)cc1 | 90
CCOc1ccc(C=NC2=C(C#N)CCC2)cc1OC | 106
Cc1ccc(NC(=S)NC(=O)CC(C)C)cc1 | 99
O=C(CCc1c[nH]c2ccccc12)OCc1nnc(-c2ccccc2)o1 | 96
COc1ccc(-n2c(SCC(=O)O)nc3c([nH]c4ccccc43)c2=O)cc1OC | 99
CCOC(=O)C1CCN(/C=C(\C#N)S(=O)(=O)c2ccccn2)CC1 | 99
O=C1CSC(=S)N1c1ccc(F)c(F)c1 | 94
O=C(N/N=C/c1ccccc1O)c1ccc(N2Cc3ccccc3C2)cc1 | 96
O=C(Nc1ccc(N2CCCCC2)cc1)Nc1ccc(F)cc1F | 93
O=C(COC(=O)c1ccccc1O)c1ccc(Cl)cc1 | 87
COC(=C(C#N)C#N)c1c(-c2c(Cl)cccc2Cl)noc1C | 100
CNC(=S)NCCc1cc2c(OC)ccc(OC)c2[nH]c1=O | 95
Cc1c(Cl)cccc1NC(=O)C1CC2CCCC(C1)C2=O (centres undefined) | 89
O=C(CC1SC(=Nc2ccc(O)cc2)NC1=O)c1ccccc1 (centres undefined) | 100
CC(=O)N1CCN=C1SCc1ccc(Br)cc1 | 92
O=C(NC(=O)c1ccccc1F)NC1CC1 | 110
C#C[C@]1(O)CC[C@H]2[C@@H]3CCC4=CC(=O)CCC4=C3C=C[C@@]21CC | 99
CN(C)c1nc(N(C)C)nc(N(C)C)n1 | 95&99&105
COc1cc([C@@H]2c3cc4c(cc3[C@@H](O[C@@H]3O[C@@H]5CO[C@@H](C)O[C@H]5[C@H](O)[C@H]3O)[C@H]3COC(=O)[C@H]23)OCO4)cc(OC)c1O | 93&95
O=C(CCN1CCC(c2ccc(Cl)s2)=N1)c1ccc(Cl)s1 | 81
O=C(CCCN1C(=O)/C(=C\c2ccco2)SC1=S)Nc1ccc2c(c1)OCO2 | 99
CCC(=O)Nc1sc2c(c1-c1nc3ccccc3s1)CCN(C(C)=O)C2 | 96
CC(=O)c1c(O)c(C)c(O)c(Cc2c(O)c3c(c(C(=O)/C=C/c4ccccc4)c2O)OC(C)(C)C=C3)c1O | 98
CC(C)CNS(=O)(=O)c1ccc(CCC(=O)Nc2ccc3c(c2)OCO3)cc1 | 95
c1ccc(CN2CCSCC2)cc1 | 103
O=C1NC(=NCc2cccs2)S/C1=C\c1ccc2ncccc2c1 | 104
C=CC1CN2CCC1CC2C(OC(=O)OCC)c1ccnc2ccc(OC)cc12 (centres undefined) | 88
CN(C)c1ccc(C(=S)N2CCCC2)cc1Br | 91
O=C(CCCc1ccccc1)Nc1ccccc1O | 103
CN(CCc1ccccc1)Cc1c(F)cccc1F | 109
Cn1c(=O)n(CCOc2ccc3ccccc3c2)c2ccccc21 | 94
N#C/C(=C/c1cccn1-c1ccc(Br)cc1)C(=O)NCc1ccco1 | 97
CS(=O)(=O)N(CC(O)Cn1cc(/C=N/O)c2ccccc21)c1ccc(Cl)cc1 (centres undefined) | 95
O=c1ccc2[nH]cc(C3=CCNCC3)c2[nH]1 | 108
O=C(Nc1ccccc1)O/N=C1/CCCc2occc21 | 96
CCn1nc(C(=O)O)c(=O)c2cc3c(cc21)OCO3 | 99
CNC(=O)n1cc(Br)c(/C(N)=N\OCc2ccccc2)n1 | 96
Cc1nc(-c2ccc(-c3ccno3)s2)no1 | 99
CCC(C)NC(=O)Nc1cccc2ccccc12 (centres undefined) | 90
COC(=O)C1C(=O)CC(=O)CC1c1ccc(OC)cc1 (centres undefined) | 101
CCOc1ccc(NC(=O)c2ccc(-c3ccccc3F)o2)cc1 | 89
C=CCNCCOc1ccc(Cl)c(Cl)c1 | 102
CN(C)/C=C/C(=O)c1csc(-c2ccccc2)n1 | 101
CCN(CC)CC(=O)Nc1scc2c1c(=O)oc1ccccc12 | 95
COC(=O)c1ccc(COc2coc(CN3c4ccccc4CC3C)cc2=O)cc1 (centres undefined) | 94

Carrying on.
compound | RVFV N-RNA FP
CC(=O)Nc1cccc(Cn2cccn2)c1 | 94
Brc1ccc(CN2CCN(Cc3ccccc3)CC2)s1 | 97
CCC1(CC)Cc2ccccc2C(N)=C1C#N | 96
COc1ccc(-c2nnc3sc(C(C)N4C(=O)c5ccccc5C4=O)nn23)cc1 (centres undefined) | 89
Nc1nc2ncc(CNc3ccc(C(=O)N[C@@H](CCC(=O)O)C(=O)O)cc3)nc2c(=O)[nH]1 | 108
Cc1ccsc1C=Nc1cccc2c(=O)[nH][nH]c(=O)c12 | 85
Cc1csc2nc(O)c(C(=O)NCCN(C)C)c(=O)n12 | 107
NS(=O)(=O)c1ccc(NC(=S)NC(=O)C2CCCCC2)cc1 | 98
N#Cc1ccc(S(=O)(=O)N2CCNC(=O)C2CC(=O)Nc2cc(Cl)ccc2Cl)cc1 (centres undefined) | 93
COC(C(=O)Nc1ccccc1C(=O)N1CCOCC1)c1ccccc1 (centres undefined) | 94

An excerpt of these results, as labelled records.
Nc1nc2ncc(CNc3ccc(C(=O)N[C@@H](CCC(=O)O)C(=O)O)cc3)nc2c(=O)[nH]1
  RVFV N-RNA FP: 108
Cc1ccsc1C=Nc1cccc2c(=O)[nH][nH]c(=O)c12
  RVFV N-RNA FP: 85
Cc1csc2nc(O)c(C(=O)NCCN(C)C)c(=O)n12
  RVFV N-RNA FP: 107
NS(=O)(=O)c1ccc(NC(=S)NC(=O)C2CCCCC2)cc1
  RVFV N-RNA FP: 98

(more compounds)
compound | RVFV N-RNA FP
CN(c1ccccc1)N1C(=O)CSC1=S | 95
Cc1cccc(NS(=O)(=O)c2ccc3[nH]c(=O)cc(C)c3c2)c1 | 96
CCc1ccc(NC(=O)CSc2ccccc2)cc1 | 89
CC(=O)N1CCC2(CC1)C(C#N)=C(N)SC(N)=C2C#N | 90
Nc1[nH]c(=O)[nH]c(=O)c1N=Nc1ccccc1Cl | 94
Cc1cc(C)c(C)c(S(=O)(=O)N2CCN(C(=O)c3ccco3)CC2)c1C | 111
O=C1Nc2ccccc2/C1=N\N=C1/SCC(=O)N1c1ccc(O)cc1 | 98
CCc1ccc(N2C(=O)CC(C(=O)OC)=C2C)cc1 | 94
CCCS(=O)(=O)NCCc1csc(-c2cccc(C)c2)n1 | 101
Cc1ccc(S(=O)(=O)n2nccc2-c2c(-c3ccc(Cl)cc3)noc2C)cc1 | 90
CN1CCN(NC(=O)Cc2cccs2)CC1 | 93
COc1ccc(C2C3CCc4ccccc4C3=NN2C(=O)CN2CCOCC2)cc1 (centres undefined) | 88
CN(C)C(=O)Cn1cc(S(=O)(=O)Cc2ccccc2)c2ccccc21 | 92
N#CCCn1nc(-c2ccccc2)cc1NS(=O)(=O)c1ccc(Cl)c(Cl)c1 | 105
COc1ccc(Oc2cc(F)nc(N)n2)cc1 | 99
COc1ccc2ncc(O)cc2c1 | 94
N#Cc1ccccc1CSc1n[nH]c(=O)[nH]c1=O | 98
Nc1cccc(-c2cc3c(Oc4cccc(O)c4)ncnc3[nH]2)c1 | 97
CCC(=O)Nc1ccc(S(=O)(=O)N2CCCC2)cc1 | 80
CC(C)n1nnc(-c2ccc(OCc3ccccc3F)cc2)n1 | 93
O=C(Cc1ccccc1)Nc1cccc(-c2nc3ccccc3o2)c1 | 89
CCOC(=O)c1ccc(COC(=O)c2ccc(-c3nnc(-c4ccccc4)o3)cc2)o1 | 100
CCCP(=O)(CC(=O)O)c1ccccc1 (centres undefined) | 96
Nn1c(COc2ccccc2)nnc1SC(F)F | 88
CNCCNS(=O)(=O)c1cccc2cnccc12 | 103&94
O=c1c2c(nc(NCCO)n1-c1ccccc1)-c1ccccc1CC21CCCCC1 | 94
COc1cccc2sc(NS(=O)(=O)CS(=O)(=O)Nc3nc4c(OC)cccc4s3)nc12 | 89
CCNC(=S)NS(=O)(=O)c1ccccc1 | 96
COc1cccc(S(=O)(=O)NCC(=O)N2CCCCC2C)c1 (centres undefined) | 95
CN(C)c1ccc(NC(=O)CCCc2ccccc2)cc1 | 92
NC(C(=O)N[C@@H]1C(=O)N2C(C(=O)O)=C(Cl)CS[C@H]12)c1ccccc1 (some centres undefined) | 93
CN1CCN(S(=O)(=O)c2ccc3c(c2)oc(=O)c2cc(S(=O)(=O)N4CCN(C)CC4)ccc23)CC1 | 90
Cc1cccc(C(=O)NCC(=O)NN)c1 | 97
CC(C)(CO)C(O)C(=O)NC1CCCCC1 (centres undefined) | 76
Cc1cccc(OCCCC(=O)N2CCCCCC2)c1C | 96
Cn1cc2c(n1)-c1cc(Cl)ccc1SC2 | 93
Cc1cc(Cl)ccc1OCCCC(N)=O | 98
NC1CONC1=O (centres undefined) | 93
Cc1ccccc1NC(=O)Nc1ccc(-n2ncnn2)cc1 | 92
FC(F)(F)c1cccc(-n2c(-c3ccco3)n[nH]c2=S)c1 | 97
CC#C[C@]1(O)CC[C@H]2[C@@H]3CCC4=CC(=O)CCC4=C3[C@@H](c3ccc(N(C)C)cc3)C[C@@]21C | 100&98&101
CCc1ccc(C(=O)NCc2cccs2)s1 | 98
Cc1ccc(N2C(=O)C3CNC4(C(=O)Nc5ccc(Br)cc54)C3C2=O)cc1 (centres undefined) | 100
CC(=O)NN=C1CCC(=NNC(C)=O)CC1 | 99
Brc1ccc2c(c1)C1CC(c3ccccc3)=NN1C(c1ccco1)O2 (centres undefined) | 92
CN(C)c1cc(-c2ccccc2)oc(=O)c1Cl | 95
O=C(O)C1=CCCN(CCON=C(c2ccccc2)c2ccccc2)C1 | 101
O=C(NC(=O)c1ccccc1O)c1ccc(F)cc1 | 98
COC(=O)c1oc2c(c1C)C(=O)CCC2 | 96
COc1ccc(O)c(/C=N/c2nc3ccccc3s2)c1 | 102

Other results:
compound | RVFV N-RNA FP
COc1ccc(C2c3cccn3CCN2C(=O)Nc2cccs2)cc1OC (centres undefined) | 92
Cc1cccc(NC(=O)CCCN2C(=O)CCC2=O)c1C | 97
Cc1ccc2ncc(C(=O)N3c4ccccc4CC3C)c(=O)n2c1 (centres undefined) | 91
O=C(O)Cc1ccc(NC(=S)Nc2ccc3c(c2)OCO3)cc1 | 88
CNC(=O)[C@H]1O[C@@H](n2cnc3c(NCc4cccc(I)c4)ncnc32)C(O)[C@H]1O (some centres undefined) | 99
O=C(COc1ccc2c3c(c(=O)oc2c1)CCC3)c1ccc(N2CCCC2)cc1 | 87
CN1CC(c2ccccc2)OC1=O (centres undefined) | 100
CCN(CC)C(=O)c1sc(NC(=S)N(C)Cc2cn(CC)nc2C)c(C(=O)OC)c1C | 90
Cc1ccc(C)c(-c2nnc(NC(=O)/C=C/c3cccs3)o2)c1 | 95
Cc1oc(-c2ccc(Cl)cc2)cc1CO | 99
OC1CCN(C(=S)NC2CCCC2)CC1 | 99
COC(=O)c1c(C)oc(C)c1S(=O)(=O)N1CCCCC1 | 98
COc1cccc(-c2noc(-c3ccccc3C)n2)c1 | 96
CC1=CC(C)(C)N(CN2C(=O)c3ccccc3C2=O)c2cc(C)ccc21 | 97
O/N=C/c1cn(CC(O)COc2ccc(Cl)cc2)c2ccccc12 (centres undefined) | 95
COc1ccc(OC)c(NC(=O)CS)c1 | 97
COc1ccc(CC(=O)NCc2ccccc2)cc1 | 94
Nc1nc(SCCO)[nH]c(=O)c1NC(=O)c1ccccc1F | 100
O=C(Cc1nc(-c2cnccn2)no1)N/N=C/c1ccccc1 | 108
Cc1cc(NS(=O)(=O)c2ccc(N3C(=O)c4ccccc4C3=O)cc2)no1 | 95
CS(=O)(=O)c1ccc(-c2cccc(NC(=O)Cc3cccs3)c2)nn1 | 109
NCc1n[nH]c(=S)n1CCc1ccccc1 | 95
N#C/C(C(=O)N1CCCCC1)=C(/S)Nc1ccccc1 | 90
Cc1ccc(/C=C/C(=O)NCC2CCN(C(=O)/C=C/c3ccc(C)o3)CC2)o1 | 95
COc1ccc(Cl)cc1N(C(C)C(=O)O)S(C)(=O)=O (centres undefined) | 104
COc1cccc2c(C)cc(N3CCCCC3)nc12 | 95
Cc1cccc(C)c1N1C(=O)CSCC1=O | 89
CN1CCN(NC(NC(=O)c2cccnc2)(C(F)(F)F)C(F)(F)F)CC1 | 95
Cc1ccc(S(=O)(=O)N(CC(=O)N2CCC(C)CC2)C(=O)N2CCN(C)CC2)cc1 | 97
O=C1c2ccccc2C(=O)N1CN(CN1C(=O)c2ccccc2C1=O)C1CC1 | 99
NS(=O)(=O)c1ccc2nc(NC(=O)c3ccc(Br)s3)sc2c1 | 95
Nc1cnn(C2CCCCC2)c(=O)c1Cl | 99
NNC(=O)C(Oc1ccccc1)Oc1ccccc1 | 97
CCOC(=O)N1CCN(CC2CCCCC2)CC1 | 101
CNC(=S)N1CCNC(=O)C1CC(=O)Nc1cc(Cl)ccc1C (centres undefined) | 94
CCC(C)NC(=S)NC1CCCCC1 (centres undefined) | 112
O=C(CCN1C(=O)c2ccccc2S1(=O)=O)N1CCOCC1 | 91
CC1CCc2cc(F)ccc2N1C(=O)C12CCC(c3nc(C#N)c(C#N)nc31)C2(C)C (centres undefined) | 92
